Screening data (PubChem BioAssay)
Mtb MenB inh: blocks the Mycobacterium tuberculosis MenB enzyme; inhibition, %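 (about 12 µg/mL by stock and volumes)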; AID 540299; 100,000 tested, 0.43% active; P9WNP5; MenB enzyme assay, absorbance read-out; some hits fall short of the stated cut;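 active = mean of two replicates above 30%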;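 also: 0% = no compound and 100% = wells with inactive enzyme; the first replicate is given; strong numbers were not always called active; inactives centre near -10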
Target sequence (P9WNP5 whole entry, looked up): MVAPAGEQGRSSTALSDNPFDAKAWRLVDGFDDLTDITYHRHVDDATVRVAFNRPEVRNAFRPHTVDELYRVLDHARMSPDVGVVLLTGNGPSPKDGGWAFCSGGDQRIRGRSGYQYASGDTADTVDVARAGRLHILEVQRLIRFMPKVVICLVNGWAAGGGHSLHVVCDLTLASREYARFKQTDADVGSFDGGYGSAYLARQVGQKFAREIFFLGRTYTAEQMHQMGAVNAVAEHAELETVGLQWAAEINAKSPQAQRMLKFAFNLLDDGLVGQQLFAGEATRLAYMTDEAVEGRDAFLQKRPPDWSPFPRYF
MbtI inh: inhibitors of Mycobacterium tuberculosis siderophore enzyme MbtI; AID 493033; P9WFX0; inhibition, %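 (about 17 µg/mL by stock and volumes)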; 100,000 tested, 0.89% active; purified MbtI enzyme, fluorescence intensity read-out;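 active = above 50% in both replicates, above 80% if mildly self-fluorescent; inactive = the rest, strongly fluorescent compounds included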;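 also: 0% = mean of negative and 100% = mean of positive controls; one replicate is shown; some compounds called inactive have numbers as strong as hits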
PV pol inh: inhibitors of poliovirus RNA polymerase binding and polymerization. 150,000 tested, 0.66% active. % elongation, % (compound at 16.7 µg/mL). P03300. poliovirus polymerase elongation, fluorescence polarization; stronger effect = lower value; in the data active = % elongation below about 90%; also: some results filed as inactive read as strong as hits
Target sequence (P03300 1749-2209 limits assumed): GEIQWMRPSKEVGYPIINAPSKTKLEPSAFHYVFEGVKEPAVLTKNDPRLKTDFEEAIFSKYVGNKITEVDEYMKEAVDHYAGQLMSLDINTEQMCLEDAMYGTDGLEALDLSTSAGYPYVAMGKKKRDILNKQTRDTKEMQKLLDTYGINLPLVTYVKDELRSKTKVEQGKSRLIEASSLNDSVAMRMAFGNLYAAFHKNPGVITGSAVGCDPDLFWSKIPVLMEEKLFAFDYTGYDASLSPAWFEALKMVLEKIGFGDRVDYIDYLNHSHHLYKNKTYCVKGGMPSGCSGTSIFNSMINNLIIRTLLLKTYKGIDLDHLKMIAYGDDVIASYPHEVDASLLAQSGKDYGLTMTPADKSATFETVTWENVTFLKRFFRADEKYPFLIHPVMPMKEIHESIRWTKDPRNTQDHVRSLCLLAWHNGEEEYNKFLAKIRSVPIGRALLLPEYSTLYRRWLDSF
PV pol inh intensity: further read-out of PV pol inh, marked with its call; % elongation; measured here: total intensity read-out; formula for this scale not given here;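 total fluorescence in place of polarization; lower means less elongation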
* hit, by the source's call; . = no result given.

Key to letters – A = Mtb MenB inh; B = MbtI inh; C = PV pol inh; D = PV pol inh intensity
1: CC1=C(C(=O)Nc2ccc(F)cc2)C(c2ccc(F)cc2)C2=C(CC(c3ccccc3)CC2=O)N1 (configuration not stated)
  A: -22; B: 16; C: 104; D: 107
2: CC1(C)CCc2cc(-c3ccn(S(=O)(=O)c4cccc(C(F)(F)F)c4)n3)ccc2O1
  A: -40; B: -11; C: 103; D: 107
3: Cc1cc(C)n(C(=O)N2c3ccccc3Sc3ccccc32)n1
  A: -12; B: -17; C: 99; D: 102
4: CCNc1nc(CN2CCOCC2)nc2sc3c(c12)CCCC3
  A: -32; B: 4; C: 108; D: 110
5: COc1ccc(CNC(=O)c2cnc3scc(C)n3c2=O)cc1
  A: -24; B: 103; C: 99; D: 101
6: CCCC(=O)NC(=S)c1sc(N2CCCC2)nc1-c1cccs1
  A: -25; B: 5; C: 101; D: 109
7: O=C(CSc1ccccc1)N1CCN(C(=O)C2CCCO2)CC1 (configuration not stated)
  A: -10; B: -20; C: 100; D: 103
8: N#CCn1c(CSc2n[nH]c(N)n2)nc2ccccc2c1=O
  A: -52; B: 10; C: 110; D: 123
9: Nn1c(=O)c2ccccc2n2c(SCC(=O)c3ccccc3)nnc12
  A: 2; B: -1; C: 102; D: 104
10: CC(OC(=O)c1oc2ccccc2c1CSc1ncn[nH]1)C(=O)Nc1ccc(S(=O)(=O)Nc2ncccn2)cc1 (configuration not stated)
  A: -17; B: -2; C: 100; D: 93
11: CC1=C(c2ccccc2)S(=O)(=O)N(CC(=O)O)C1=O
  A: 20; B: 17; C: 100; D: 102
12: COc1ccc(N2CCN(C(=O)CC(c3cccc(C)c3)n3cccc3)CC2)cc1 (configuration not stated)
  A: -16; B: -12; C: 104; D: 102
13: COc1cccc(-n2cc(C(=O)NCc3ccccc3Cl)c3ccccc3c2=O)c1
  A: -40; B: 13; C: 101; D: 103
14: CCCN1Cc2cccc(C(=O)Nc3ccc(CC)cc3)c2C1=O
  A: -6; B: -9; C: 101; D: 104
15: Cc1ccc2c(c1)-c1onc(C(=O)N3CCC(C)CC3)c1CO2
  A: -22; B: -4; C: 107; D: 106
16: Cc1ccc(Cl)cc1NC(=O)Cn1c(=O)n(CCc2c[nH]c3ccccc23)c(=O)c2cccnc21
  A: 0; B: 19; C: 100; D: 103
17: CN1CCC(N(C)C(=O)/C(C#N)=C/c2ccc(OC(F)F)cc2)CC1
  A: -8; B: 7; C: 99; D: 98
18: Cc1ccc(C)c(NCc2ccc3c(c2)OCO3)c1
  A: -27; B: .; C: 107; D: 99
19: COC(=O)C(N)C(C)C (configuration not stated)
  A: -7; B: 7; C: 96; D: 99
20: CS(=O)(=O)Nc1ccc2c(c1)OCC(=O)N2Cc1ccccc1
  A: 17; B: 15; C: 101; D: 102
21: O=C(OCN1C(=O)c2ccccc2C1=O)c1ccco1
  A: -13; B: -13; C: 101; D: 102
22: COC(=O)Nc1nn(Cc2ccccc2F)cc1Br
  A: -18; B: -8; C: 102; D: 101
23: COC(=O)c1ccc2c(=O)[nH]c(COC(=O)c3ccccc3NCCO)nc2c1
  A: -12; B: -13; C: 101; D: 96
24: CNC(=O)C1CCCN(c2nn3cc(-c4ccc(OC)cc4)nc3s2)C1 (configuration not stated)
  A: -22; B: 3; C: 105; D: 98
25: O=C1CC(C(=O)N(C/C=C/c2ccccc2)c2ccc3c(c2)OCCO3)CN1Cc1ccco1 (configuration not stated)
  A: -35; B: 17; C: 108; D: 114
26: CCC(=O)N(c1ccc(OC)cc1OC)C1C=CS(=O)(=O)C1 (configuration not stated)
  A: -8; B: -12; C: 102; D: 98
27: O=C(O)CC(C(=O)O)N1C(=O)CSC1=S (configuration not stated)
  A: 8; B: 23; C: 98; D: 103
28: O=C(CNC(=S)N(Cc1ccccc1)Cc1cccnc1)NC1CC1
  A: 2; B: 7; C: 101; D: 105
29: O=C(Nc1ccccc1C(=O)NC1CCCC1)NC1CCCC1
  A: -7; B: 0; C: 101; D: 101
30: C=CCN1C(=O)/C(=C2\SC(=Nc3ccccc3)N(c3ccccc3)C2=O)c2ccccc21
  A: -38; B: 4; C: 101; D: 106
31: COc1ccc(N/C=C\C(=O)c2ccc3c(c2)OCO3)cc1
  A: -6; B: -16; C: 102; D: 103
32: CSc1oc(-c2ccco2)nc1S(=O)(=O)c1ccccc1
  A: -41; B: -9; C: 101; D: 99
33: Cc1cccc2cc(C#N)c(N3CCC(C)CC3)nc12
  A: -3; B: -11; C: 101; D: 108
34: CC1OC(OC2CC(O)C3(CO)C4C(CCC3(O)C2)C2(O)CCC(C3=CC(=O)OC3)C2(C)C[C@H]4O)C(O)C(O)C1O (some centres not stated)
  A: -5; B: .; C: 100; D: 104
35: O=C(O)COc1ccc(-n2cccc2)cc1
  A: -14; B: 0; C: 101; D: 99
36: COc1cccc(-c2cc(C(=O)N(C)C3CCCCC3)[nH]n2)c1
  A: 4; B: -2; C: 98; D: 102
37: COC(=O)c1cc2c(C)nn(-c3ccccc3)c2s1
  A: -20; B: 35; C: 97; D: 102
38: COc1ccc(S(=O)(=O)Nc2ccc(O)c(Sc3ncn[nH]3)c2)cc1
  A: -8; B: 8; C: 101; D: 103
39: NC(=O)C1CCCN1c1ncnc2sc(-c3ccccc3)cc12 (configuration not stated)
  A: -14; B: 106; C: 104; D: 104
40: O=C1CC2(CCCC2)C(=O)N1c1ccc(S(=O)(=O)NCc2ccco2)cc1Cl
  A: -22; B: -3; C: 105; D: 106
41: O=C(Nc1ccc(F)cc1)N1CCC(Nc2nc3ccccc3o2)CC1
  A: 2; B: -12; C: 104; D: 102
42: CCCCN1C(=O)c2ccc(C(=O)Oc3ccc(-c4nnco4)cc3)cc2C1=O
  A: -17; B: -12; C: 102; D: 101
43: CCc1nn(-c2ccccc2)c(=O)c2ccccc12
  A: -14; B: -16; C: 101; D: 105
44: CCCCS(=O)(=O)Nc1ccc2cn[nH]c2c1
  A: -15; B: -35; C: 98; D: 102
45: CC(C)NC(=O)CCCc1nc(-c2ccc(Cl)cc2)no1
  A: 2; B: 1; C: 101; D: 102
46: NNC(=O)C1CCC(c2ccc(Cl)cc2)CC1 (configuration not stated)
  A: 2; B: -9; C: 107; D: 103
47: NCc1ccccc1OC(F)(F)F
  A: 2; B: 6; C: 103; D: 105
48: Cc1cccc(OCCCC(=O)Nc2ccccc2N2CCOCC2)c1
  A: -15; B: -2; C: 99; D: 103
49: COc1ccc(OCC(=O)N(C)CC2COc3ccccc3O2)cc1 (configuration not stated)
  A: -4; B: -4; C: 101; D: 105
50: O=C(OCCN1C(=O)c2ccccc2C1=O)c1cccc(C(F)(F)F)c1
  A: -23; B: 1; C: 104; D: 107

Some of the entries so far, screen by screen.
(27) O=C(O)CC(C(=O)O)N1C(=O)CSC1=S (configuration not stated)
(28) O=C(CNC(=S)N(Cc1ccccc1)Cc1cccnc1)NC1CC1
(29) O=C(Nc1ccccc1C(=O)NC1CCCC1)NC1CCCC1
(30) C=CCN1C(=O)/C(=C2\SC(=Nc3ccccc3)N(c3ccccc3)C2=O)c2ccccc21
(31) COc1ccc(N/C=C\C(=O)c2ccc3c(c2)OCO3)cc1
(32) CSc1oc(-c2ccco2)nc1S(=O)(=O)c1ccccc1

| assay / entry | 27 | 28 | 29 | 30 | 31 | 32 |
| --- | --- | --- | --- | --- | --- | --- |
| Mtb MenB inh | 8 | 2 | -7 | -38 | -6 | -41 |
| MbtI inh | 23 | 7 | 0 | 4 | -16 | -9 |
| PV pol inh | 98 | 101 | 101 | 101 | 102 | 101 |
| PV pol inh intensity | 103 | 105 | 101 | 106 | 103 | 99 |

(next part)
Key to letters – A = Mtb MenB inh; B = MbtI inh; C = PV pol inh; D = PV pol inh intensity
51: CCOC(=O)C1C(=O)Oc2ccc(Br)cc2C1C1(C(=O)OC)CCCCC1 (configuration not stated)
  A: -49; B: -15; C: 103; D: 106
52: NC(=O)c1ccc(NC(=O)COC(=O)Cc2cccc3ccccc23)cc1
  A: .; B: 2; C: 102; D: 106
53: CC(O)CON1C(=O)c2ccccc2C1=O (configuration not stated)
  A: 2; B: 1; C: 102; D: 102
54: N#Cc1ccccc1NS(=O)(=O)c1ccccc1
  A: 5; B: -9; C: 105; D: 102
55: CCOc1ccc(C2c3cc(OC)c(OC)cc3CC(=O)N2c2ccccc2)cc1 (configuration not stated)
  A: -29; B: -5; C: 102; D: 96
56: CC(C)N(C(=O)Nc1ccccc1)C(C)C
  A: -62; B: -6; C: 104; D: 101
57: CN1CCN(c2ccc(CNS(=O)(=O)c3ccc(-c4ccno4)s3)cc2)CC1
  A: 12; B: -1; C: 101; D: 97
58: CC(=O)Oc1ccccc1C(=O)NCc1ccc(C)cc1
  A: -2; B: .; C: 107; D: 106
59: CCOC(=O)N1CCC(NC(=O)c2ccc3c(c2)N(Cc2cccc(Cl)c2)C(=O)c2ccccc2S3=O)CC1 (configuration not stated)
  A: -1; B: 20; C: 99; D: 100
60: COc1ccc(S(=O)(=O)N2CCC(C(=O)O)CC2)cc1
  A: -20; B: 8; C: 104; D: 99
61: CCCCCc1c(C)nc(-c2ccccn2)[nH]c1=O
  A: -43; B: 9; C: 103; D: 109
62: COc1cc(OC)c(OC)cc1/C=N/n1c(C)nnc1-n1nc(C)cc1C
  A: -1; B: 21; C: 102; D: 103
63: CCOC(=O)c1ccc(N/C=C/C(=O)C(C)(C)C)cc1
  A: -2; B: -13; C: 99; D: 104
64: CC(C)(C)NC(=O)CSc1nncn1NCc1ccccc1
  A: -8; B: -8; C: 100; D: 111
65: CC1(C)CC(=O)C(C(c2ccc(F)cc2O)C2C(=O)CC(C)(C)CC2=O)C(=O)C1
  A: -40; B: .; C: 102; D: 105
66: O=C(CCC(=O)c1cccs1)Nc1cc(Cl)cc(Cl)c1
  A: .; B: -5; C: 103; D: 108
67: Cc1noc(C)c1COc1cccc(C(=O)OCN2C(=O)c3ccccc3C2=O)c1
  A: 3; B: 7; C: 107; D: 109
68: O=C(OCCN1CCCC1=O)c1sc2cc(Cl)ccc2c1Cl
  A: .; B: -8; C: 101; D: 104
69: COc1cc(-c2nnc(SCc3cn4cc(Cl)ccc4n3)o2)cc(OC)c1OC
  A: 5; B: -1; C: 104; D: 108
70: Cc1c(Cl)cccc1N=C1NC(=O)CS1
  A: -13; B: -5; C: 99; D: 102
71: Cc1cccc2c(=O)c(NC(=O)N3CCC(C(N)=O)CC3)c[nH]c12
  A: -23; B: 111; C: 102; D: 97
72: COc1ccc(CC2CCC3(CC2)NC(=O)c2ccccc2O3)cc1 (configuration not stated)
  A: 2; B: -4; C: 98; D: 101
73: CC(C(=O)Nc1ncccn1)(c1ccccc1)c1ccccc1
  A: -19; B: -17; C: 101; D: 103
74: COCN1C(=O)c2cc(Cl)c(Cl)cc2C1=O
  A: 5; B: 14; C: 100; D: 100
75: CC(=O)Oc1ccc(-c2ccc(C(=O)O)cc2)cc1C
  A: .; B: -10; C: 103; D: 106
76: CCN1CCn2c3c(c4cc(Cl)ccc42)CCCC31 (configuration not stated)
  A: -29; B: -4; C: 102; D: 96
77: CN(C)C(=O)Cn1c(Cl)nc2c1c(=O)n(C)c(=O)n2C
  A: -6; B: -13; C: 98; D: 101
78: CCN(C(=O)CCc1nc(-c2ccccc2F)no1)c1cc(Cl)ccc1OC
  A: -30; B: -5; C: 102; D: 98
79: Cc1nn(-c2ccccc2)c(C)c1CN(C)C(=O)CN1C(=O)COc2ccccc21
  A: -12; B: 1; C: 100; D: 95
80: COC(=O)c1nc(C(=O)OC)c(C(=O)OC)nc1C(=O)OC
  A: 8; B: 5; C: 101; D: 102
81: Cn1c(=O)c2c(nc(CN3CCN(c4ccc(F)cc4)CC3)n2CCN2CCOCC2)n(C)c1=O
  A: -20; B: 12; C: 107; D: 103
82: O=S(=O)(NCCc1c[nH]c2ccccc12)c1ccccc1
  A: 2; B: -4; C: 106; D: 108
83: S=c1nc(-c2cccs2)[nH]n1CN1CCOCC1
  A: 19; B: 86; C: 100; D: 103
84: O=C1NC2(CCNCC2)N=C1c1ccc(Cl)cc1
  A: -21; B: 14; C: .; D: .
85: N#Cc1c[nH]c2ccc(NC(=O)/C=C/c3ccc(OC(F)(F)F)cc3)cc12
  A: 8; B: -12; C: 104; D: 111
86: Cc1cc(C(=O)NNC2=NCCCCC2)n[nH]1
  A: -27; B: 4; C: 101; D: 108
87: Cc1nc(C)c(CC(=O)O)c(=O)[nH]1
  A: -35; B: -5; C: 102; D: 100
88: O=C(O)CSc1ccc2ccccc2c1
  A: 1; B: 2; C: 99; D: 103
89: CCc1ccccc1N(C)C(=O)CCn1cnc2onc(-c3ccc(F)cc3)c2c1=O
  A: -31; B: 15; C: 101; D: 102
90: CC(C)(C)NC(=O)NNc1nc2ccc(Cl)cc2s1
  A: 9; B: 26; C: 101; D: 98
91: N#Cc1cc2c(N)c(C(=O)Nc3ccccc3)sc2nc1N
  A: -28; B: .; C: 104; D: 108
92: Cc1ccc(S(=O)(=O)Cc2nc(-c3ccc(C(=O)NC(C)C)cc3)oc2C)cc1
  A: 7; B: 199; C: 101; D: 103
